# Bst PK mod: alters activity of Bacillus stearothermophilus pyruvate kinase | partly purified Bacillus stearothermophilus pyruvate kinase, luminescence ATP production; ribose 5-phosphate activator present at AC10 | Potency, µM | 1.2% of 51,000 active; in the data active means potency below about 11 µM; inconclusive means mostly about 12 µM to 25 µM; inactive means weaker than that;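 the screen sought inhibitors and activators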;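 note: potency is the fitted concentration of half-maximal effect; scaled between full activation by ribose 5 phosphate and full inhibition by luteolin; about four in five hits inhibit and the cells do not say which; series up to 57 µM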
# TsaE inh: displaces an ADP probe from E. coli YjeE (TsaE). AID 605. purified YjeE, fluorescence polarisation of a bound ADP probe. 0.05% of 71,000 active. Potency, µM. P0AF67; active = well fitted falling curve; inconclusive = weaker or top-dose-only fall, or a rising curve; inactive = flat or poorly fitted curve;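 note: top concentration of the series not given in the record; excess ADP was the control for the full effect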
#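 Fluorescence polarization of a BODIPY Texas Red–ADP probe (2 uM) bound to purified YjeE (10 uM) was read after 15 min room-temperature incubation with compounds. Loss of polarization marks inhibitors; ADP serves as titrated control.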
# Starred values were filed as active, the others as inactive; i = inactive; ? = inconclusive; / = no result given.
# Values run as follows: Bst PK mod, TsaE inh
> COc1ccc(Cn2nnnc2C(c2ccccc2Cl)N2CCN(C3CCCC3)CC2)cc1 (stereo not drawn)
→ >57, i
> O=C(Nc1ccc(N2CCN(C(=O)c3ccco3)CC2)cc1)c1cccs1
→ >57, i
> CCCCn1c2nc3ccccc3nc2c2c(=N)oc(C)nc21
→ >57, i
> CC(N)=NCCCC[C@H](N)C(=O)O
→ /, i
> CCCOc1ccc(/C(O)=C2/C(=O)C(=O)N(c3cc(C)on3)C2c2ccc(C(=O)OC)cc2)cc1 (stereo not drawn)
→ >57, i
> CCCCN(CC)S(=O)(=O)N1CCC(C(=O)NCCCN2CCOCC2)CC1
→ /, i
> COc1ccc(S(=O)(=O)N2CCN(C(=O)c3c(C)nn(-c4ccccc4)c3Cl)CC2)cc1
→ >57, i
> CC(=O)N1CCN(c2nc(CC(C)C)c3c(c2C#N)CCC3)CC1
→ >26, /
> COCC(=O)NCCc1ccc(S(N)(=O)=O)cc1
→ /, i
> Cc1cc(NC(=O)CN2CC3CC(C2)c2cccc(=O)n2C3)nc2c1c(=O)oc1ccccc12 (stereo not drawn)
→ /, i
> CCOC(=O)N1CCC(NC(=O)Cn2cc3c(n2)CCCCC3)CC1
→ /, i
> Cc1cc(C)c2c(c1)cc(C)c1nnc(SCC(=O)Nc3cc(C)on3)n12
→ >57, i
> CCOC(=O)CNC(=O)CSc1ncnc2c1cnn2-c1ccc(C)cc1
→ >57, i
> O=C(NCCc1c[nH]c2ccccc12)[C@@H]1C[C@H]1[C@@H](NP(=O)(c1ccccc1)c1ccccc1)c1ccccc1
→ /, i
> COc1cc(C2NC(=O)NC(C)=C2C(=O)OC2CCCCC2)cc(Br)c1O (stereo not drawn)
→ /, i
> CCOC(=O)N1CCN(C(=O)CSc2nc3ccccc3c(=O)n2-c2ccccc2)CC1
→ >57, i
> COc1cc(-c2ccc(N=Nc3ccc4c(S(=O)(=O)O)cc(S(=O)(=O)O)c(N)c4c3O)c(OC)c2)ccc1N=Nc1ccc2c(S(=O)(=O)O)cc(S(=O)(=O)O)c(N)c2c1O
→ /, 50µM*
> N#C/C=C1/NC(=O)c2ccccc2S1
→ i, i
> COCCNC(=O)c1cc(-c2ccc(OC)c(OC)c2)on1
→ /, i
> FC(F)(F)c1nc2nc(Cl)c(Cl)nc2n1CCCN1CCOCC1
→ /, i
> CCCc1cc(=O)oc2c(CN3CCCC3)c(O)ccc12
→ >26, /
> Cc1cc(Cl)ccc1OCC(=O)Nc1ccccc1CO
→ /, i
> Cn1c(CCCCCN)nc2ccccc21
→ >57, i
> O=c1c(-c2cccc(Cl)c2)nc2cncnc2n1C1CC1
→ /, i
> CCOC(=O)c1cc(NC(=O)Nc2ccc(OC)c(OC)c2)c(C)nc1C
→ >57, i
> CCOC(=O)c1ccc(S(=O)(=O)N2CCN(CC3CC=CCC3)CC2)cc1 (stereo not drawn)
→ >57, i
> CC(C)(C)n1ncc2c(=O)n(CC(=O)c3ccc(Cl)cc3)cnc21
→ /, i
> Cn1c2ccccc2c2c(C(=O)NCCCN3CCCC3=O)cn(C3CCCCC3)c(=O)c21
→ >57, i
> O=C(CCn1nc(-c2ccc(Cl)cc2)ccc1=O)N1CCOCC1
→ >57, i
> C=C1C(=O)O[C@H]2C[C@@]3(C)CCCC(=C)[C@@H]3C[C@H]12
→ /, i

# Given with the structure last: six of the compounds above
Bst PK mod | TsaE inh | SMILES
/ | i | COCCNC(=O)c1cc(-c2ccc(OC)c(OC)c2)on1
/ | i | CCOC(=O)N1CCC(NC(=O)Cn2cc3c(n2)CCCCC3)CC1
i | i | N#C/C=C1/NC(=O)c2ccccc2S1
>57 | i | COc1ccc(Cn2nnnc2C(c2ccccc2Cl)N2CCN(C3CCCC3)CC2)cc1 (stereo not drawn)
>57 | i | Cc1cc(C)c2c(c1)cc(C)c1nnc(SCC(=O)Nc3cc(C)on3)n12
/ | i | CC(N)=NCCCC[C@H](N)C(=O)O

# Entries above that have a cyano group, in the order listed:
# Values run as follows: Bst PK mod, TsaE inh
> CC(=O)N1CCN(c2nc(CC(C)C)c3c(c2C#N)CCC3)CC1
→ >26, /
> N#C/C=C1/NC(=O)c2ccccc2S1
→ i, i

# Additional results
# Values run as follows: Bst PK mod, TsaE inh
> Cc1cccc(OCC(=O)Nc2cc(C)c(C)cc2O)c1
→ >57, i
> CC(C)(C)n1nc2c(c1NC(=O)COc1ccc(Cl)cc1)CSC2
→ >57, i
> O/N=C1/CCCSc2ccccc21
→ /, i
> O=c1cnnc(NCc2ccccc2)[nH]1
→ >57, i
> O=C(NCc1ccccc1)C1CCN(S(=O)(=O)N2CCCCCC2)CC1
→ >57, i
> CCNc1ncc2nc(-c3cn(C)c4ccccc34)c(=O)n(CCC#N)c2n1
→ /, i
> CC1(C)Cc2c(C#N)c(SCC(=O)c3ccccc3)nc(N3CCOCC3)c2CS1
→ >11, /
> COc1ccc(N(C(=O)c2cccc(OC)c2OC)C2C=CS(=O)(=O)C2)c(OC)c1 (stereo not drawn)
→ >57, i
> COc1cc(N)c(Cl)cc1C(=O)CCC1CCN(CCNS(C)(=O)=O)CC1
→ /, i
> Cc1onc(-c2ccccc2)c1C(=O)N1CCOCC1
→ >57, i
> CCNC(=O)c1c(C)[nH]c(C(=O)OCC)c1C
→ >57, i
> N#Cc1ccccc1-c1nc(NCCN2CCOCC2)c2ccccc2n1
→ /, i
> Cc1cc(SCC(=O)c2ccccc2)nc(C)n1
→ /, i
> CS(=O)(=O)N(CC(=O)Nc1ccc2c(c1)OCO2)Cc1ccc(Cl)cc1
→ >57, i
> COCCN(C(=O)CCCC(=O)Nc1ccccn1)C(C(=O)NC1CCCC1)c1ccc(C)cc1 (stereo not drawn)
→ >57, i
> COc1ccc(OC)c(N(CC(=O)Nc2ccc(NC(C)=O)cc2)S(C)(=O)=O)c1
→ >57, i
> Cc1ccc2nc(Nc3ccc4[nH]c(=O)[nH]c4c3)c(-n3nc(C)cc3C)nc2c1
→ 7.5*, i
> O=c1[nH]c(CN2CCN(C/C=C/c3ccccc3)CC2)nc2ccccc12
→ >57, i
> Cc1ccc(CNC(=O)CCCn2c(=O)[nH]c3ccccc3c2=O)cc1
→ >57, i
> Cc1cc(C(=O)Nc2ccon2)cs1
→ >57, i
> COC(=O)CC1=NC(=O)CS1
→ >26, /
> CCOc1cc(OCC)cc(C(=O)Nc2cccnc2)c1
→ >57, i
> CCCCOCCCNC(=O)COc1ccccc1
→ /, i
> Cc1ccc(C)c(NC2=NS(=O)(=O)c3ccccc32)c1
→ >57, i
> CCOc1ccc2c(c1)N(C(=O)CN1C(=O)CCC1=O)C(C)(C)C=C2C
→ >57, i
> CCCCCNC(=O)c1cc(S(=O)(=O)N2CCCCC2)ccc1F
→ >57, i
> CC(=O)Nc1ccc(C(=O)Cn2nnc3ccccc3c2=O)cc1
→ >57, i
> COc1ccc(-c2cc(C(=O)N3CCN(C(c4ccccc4)c4ccccc4)CC3)no2)cc1
→ >57, i
> CCOc1ccccc1NC(=O)CSc1nnc(-c2cnccn2)n1C
→ >57, i
> Cc1ccccc1OCC(=O)NCC1CCCO1 (stereo not drawn)
→ >57, i
> COc1ccc(-n2c(=O)c(-c3cccs3)nc3cnc(N(C)C)nc32)cc1
→ /, i
> CCOC(=O)CN1CC23C=CC(O2)C(C(=O)O)C3C1=O (stereo not drawn)
→ /, i
> Cc1c(O)nc(SC2CC(=O)N(c3ccccc3)C2=O)[nH]c1=O (stereo not drawn)
→ >57, i
> Cc1nc2ccc(S(=O)(=O)NCC(=O)N3CCC(N4CCCCC4)CC3)cc2s1
→ >57, i
> C(=N\n1cnnc1)/C1CCCCC1
→ >57, i
> Cn1c(=O)[nH]c(=O)c2c1nc(N1CCCCCC1)n2CCCSc1nc2ccccc2o1
→ >57, i
> CCC1(CC)C(=O)N(C)C(=O)NC1=Nc1ccccc1
→ >57, i
> COCCCN=C(c1ccco1)n1c(=S)nc(-c2ccco2)n(CCCOC)c1=S
→ /, i
> COc1ccc(N2CCN(C(c3cc(OC)ccc3OC)c3nnnn3Cc3ccco3)CC2)cc1 (stereo not drawn)
→ >57, i
> CCOC(=O)Cn1c(=O)oc2cc(S(=O)(=O)N3CCCC(C(=O)OCC)C3)ccc21 (stereo not drawn)
→ /, i
> CCOC(=O)c1c(NC(=O)CSc2nnc(CNc3ccc(F)cc3)o2)sc(C)c1C
→ >57, i
> CCOC(=O)/C=C1\SCC(=O)N1Cc1nnc(-c2ccccc2Br)o1
→ >57, i
> Cc1ccc2cc(CN(CC3CCCO3)C(=O)C(C)C)c(=O)[nH]c2c1 (stereo not drawn)
→ >57, i
> Cn1c(=O)c2c(ncn2CC(=O)N2CCN(c3ccc(F)cc3)CC2)n(C)c1=O
→ >57, i
> NS(=O)(=O)Cc1noc2ccccc12
→ /, i
> CC(C)(C)SCCNC(=O)CSc1ccccc1
→ /, i
> CCOC(=O)C1=CN(C)C=C(C(=O)OCC)C1c1ccsc1
→ >57, i
> COc1ccc(S(=O)(=O)Cc2ccc(C(=O)N3CCN(c4ccccc4)CC3)o2)cc1
→ /, i
> CCOC(=O)c1cccc(NC(=O)C2CCCN(S(=O)(=O)c3c(C)nn(C)c3C)C2)c1 (stereo not drawn)
→ /, i
> CN1C(=O)c2ccc(NC(=O)c3c(F)c(F)c(F)c(F)c3F)cc2C1=O
→ >57, i
> CCOCCn1c(SCCCc2ccccc2)nc2c1c(=O)[nH]c(=O)n2C
→ >57, i
> CCCCC[C@@H](O)[C@@H]1C(=O)O[C@@H](C)[C@@H](O)\C=C/C=C\C=C/C=C\C=C(\C)[C@H](O)C[C@H](O)C[C@H](O)C[C@H](O)C[C@H](O)C[C@H](O)C[C@@H]1O
→ /, i
> CC1(C)CC(C2N3CC4(C)CN2CC(C)(C3)C4=O)CCO1 (stereo not drawn)
→ >57, i
> COc1ccccc1CN1CCCC(C(=O)N(C)Cc2ccccc2)C1 (stereo not drawn)
→ >57, i
> COC(=O)C1=C(C)Nc2nnnn2C1c1ccc(Cl)cc1Cl (stereo not drawn)
→ ?, i
> COc1cccc(CNC(=O)C2CCN(S(=O)(=O)c3ccc(F)cc3)CC2)c1
→ >57, i
> Nc1nonc1-c1nc2ccccc2n1CC(=O)N1CCN(c2ccc(F)cc2)CC1
→ >57, i
> CC1(C)Cc2c(sc3ncn4nc(-c5ccco5)nc4c23)CO1
→ >26, /
> OCCN1CCN(c2nc(-c3ccccc3)nc3c2oc2ccccc23)CC1
→ 6*, i
> CC(c1ccco1)N(C(=O)c1ccc(S(=O)(=O)N2CCCCC2)cc1)c1ccccn1 (stereo not drawn)
→ >57, i

# Following part:
mol,Bst PK mod,TsaE inh
Cc1ccc(C2(C(F)(F)F)NC(=O)N3CCCN=C3S2)cc1 (stereo not drawn),>57,i
CCC1CCCN1Cn1cnc2c([nH]c3ccccc32)c1=O (stereo not drawn),>57,i
CCOc1ccc(NC(=O)c2ccco2)cc1,i,i
COC(=O)c1ccccc1NC(=O)CSc1nc(-c2ccco2)cc(C(F)(F)F)n1,>57,i
CN1CCN(c2nc(-c3cccs3)cc(C(F)(F)F)n2)CC1,>57,i
CNC(=O)C(Sc1ccccc1)c1ccccc1 (stereo not drawn),/,i
CCOC(=O)Cn1c(=O)c2c(nc(N3CCCCC3)n2C)n(C)c1=O,>57,i
CCc1nnc(NC(=O)C2CCN(c3cnccn3)CC2)s1,>57,i
COc1ccc(N2C(=O)C3CCCN3C2c2cccc(F)c2)cc1Cl (stereo not drawn),>57,i
COc1ncc2nc(-c3cccs3)c(=O)n(CCC#N)c2n1,/,i
COc1cc(NC(=O)c2noc3c2CCCC3)c(OC)cc1Cl,>57,i
CC(=O)c1cccc(NC(=O)C=C(C)C)c1,>57,i
CCc1cc(=O)n2[nH]c(C)c(-c3ccccc3OC)c2n1,/,i
Cc1ccc(N2C(=O)c3cccc4c(N5CCN(C)CC5)ccc(c34)C2=O)c2cccnc12,>57,i
CCCOC(=O)NC(CC)COC(=O)Nc1cccc(C)c1C (stereo not drawn),>57,i
CC(C)c1nnc(NC(=O)c2ccc(S(=O)(=O)N3CCOCC3)cc2)s1,/,i
Nc1c(S(=O)(=O)O)cc(Nc2ccc(Nc3nc(Cl)nc(Nc4ccc(S(=O)(=O)O)cc4)n3)c(S(=O)(=O)O)c2)c2c1C(=O)c1ccccc1C2=O,/,50µM*
O=C(O)C[C@H]1OCC=C2C[N@@+]3([O-])CC[C@]45c6ccccc6N[C@@H]4[C@@H]1[C@H]2C[C@H]53,/,i
Cn1nc(C(=O)Nc2cccc(C(F)(F)F)c2)ccc1=O,>57,i
CC1CCCCN1C(=O)c1cnn2c(C(F)(F)F)cc(-c3ccco3)nc12 (stereo not drawn),/,i
COC(=O)[C@@]1(Cc2ccccc2)[C@H]2c3cc(C(=O)N4CCCC4)n(Cc4ccsc4Br)c3C[C@H]2CN1C(=O)c1ccccc1,/,i
Cn1c(=O)c2c(nc(CN3CCC(C(N)=O)CC3)n2CCCc2ccccc2)n(C)c1=O,>57,i
Brc1ccc(NCc2nnc3n2CCCCC3)cc1,>57,i
Cc1cc(N2CCN(c3ccccc3)CC2)nc(-c2ccccc2)n1,>57,i
CC(C)CCNC(=O)C(c1ccco1)N(CC1CCCO1)C(=O)Cn1nnc2ccccc21 (stereo not drawn),>57,i
COc1cccc(NC(=O)N2CCCC2C(=O)NCC(C)C)c1 (stereo not drawn),>57,i
COc1ccc(C(=O)n2nc(-c3ccccc3)nc2N)cc1OC,>57,i
COc1ccc2cc3cc(C(=O)NCc4ccccn4)oc3nc2c1,/,i
COc1nc(Nc2ccc(-c3nc4ccccc4o3)cc2)nc(N2CCOCC2)n1,>57,i
CCC(=O)Oc1ccc(-c2nc(-c3cccnc3)no2)cc1,?,i
CC1=C(C#N)C2C(/C1=N/O)C2(C)C (stereo not drawn),/,i

# From PubChem

# Only part of the results is shown. The share of hits here may be higher or lower than overall.
